Vaccinia Venus: vaccinia inhibition (Venus reporter). Vaccinia virus Venus reporter expression, fluorescence. 330,000 compounds, 0.46% hits. Potency, µM (highest dose often 36.5 µM), without a hit: at the top dose activity change, negative = inhibition, hits mostly inhibitors; active means well fitted inhibition curve with a large enough effect; inconclusive means small, poorly fitted or top-dose-only effect; inactive means no such curve, though single readings can be large or run the other way; tested in A549 cells; further: nearly all actives have a fitted effect of over 30% in size; inactives centre near -10
VACV mCherry inh: inhibitors of vaccinia virus infection (mCherry reporter signal); Vaccinia virus mCherry reporter infection, fluorescence; about a quarter of the inactives have no number; Potency, µM (top dose mostly 36.5 µM), for the others: at the highest dose activity change, negative = inhibition, hits mostly inhibitors; 310,000 compounds, 0.63% hits; active = well fitted inhibition curve with a large enough effect; inconclusive = small, poorly fitted or top-dose-only effect; inactive = no such curve, though single readings can be large or run the other way; tested in A549 cells; further: nearly all actives have a fitted effect of over 35% in size; inactives centre near -10
* hit, by the source's call; i = inactive; u = inconclusive; x = not tested or not shown; [ ] = another dose, or the depositor's remark. On the % scale 0 is the no-effect control and ±100 the full control effect; potency means the concentration at half of the fitted maximal effect.

Values in the order: Vaccinia Venus	VACV mCherry inh
> COc1ccc(C)cc1NC(=O)c1cc2ccccn2n1
 : 0%	-13%
> Cc1cc(C)cc(NC(=O)Cn2c(=O)n(Cc3ccco3)c(=O)c3oc4ccccc4c32)c1
 : -22%	-25%
> Cc1cccc(N2CCN(c3ncnc4c3c(-c3ccccc3)cn4-c3ccccc3)CC2C)c1 (stereo not given)
 : -5%	-7%
> Cc1ccc(-n2nc(C(=O)NCc3ccc(C)o3)c3c4ccccc4n(C)c3c2=O)cc1
 : -7%	-17%
> CCOc1ccccc1CNC(=O)c1ccc(NC(=O)N2CCSc3ncccc32)cc1
 : -16%	-14%
> CNS(=O)(=O)c1cccc(C(=O)OCC(=O)N2CC(C)OC(C)C2)c1 (stereo not given)
 : -1%	-5%
> CC(C)(C)c1ccc(C(=O)CCC(=O)OCC(=O)NCCc2ccc(S(N)(=O)=O)cc2)cc1
 : -10%	-17%
> Cc1ccccc1CC(=O)Nc1ccc2c(c1)c(=O)n(C)n2-c1ccccc1F
 : -15%	-22%
> Cc1ccccc1CNC(=O)C(=O)NCC1CCCN1S(=O)(=O)c1cccs1 (stereo not given)
 : -9%	-20%
> COc1ccc(C(=O)NCC(=O)OCC(=O)c2c(C)[nH]c3ccccc23)cc1OC
 : -13%	-7%
> CN1CCN(C(=O)Cc2ccccc2)CC1
 : -26%	-2%
> CCOC(=O)C1CCN(C(=O)c2nn(-c3ccc(OC)c(Cl)c3)c(=O)c3c2c2ccccc2n3C)CC1
 : -7%	-2%
> Cc1cc(Br)c(Cl)cc1NC(=O)CN1C(=O)C2C3CC(c4ccccc4)C(C3)C2C1=O (stereo not given)
 : -24%	-14%
> CCO[C@@H]1OC(C(=O)O)=C[C@H](c2csc3ccccc23)[C@H]1CCCO
 : -7%	i
> O=C1C2CC=CCC2C(=O)N1c1ccc(NCCc2ccc(Cl)cc2)c([N+](=O)[O-])c1 (stereo not given)
 : -9%	-13%

Some values from the results shown:
CNS(=O)(=O)c1cccc(C(=O)OCC(=O)N2CC(C)OC(C)C2)c1 (stereo not given) @ VACV mCherry inh: -5%
COc1ccc(C)cc1NC(=O)c1cc2ccccn2n1 @ Vaccinia Venus: 0%
CCO[C@@H]1OC(C(=O)O)=C[C@H](c2csc3ccccc23)[C@H]1CCCO @ Vaccinia Venus: -7%
Cc1cc(Br)c(Cl)cc1NC(=O)CN1C(=O)C2C3CC(c4ccccc4)C(C3)C2C1=O (stereo not given) @ Vaccinia Venus: -24%
CCOC(=O)C1CCN(C(=O)c2nn(-c3ccc(OC)c(Cl)c3)c(=O)c3c2c2ccccc2n3C)CC1 @ Vaccinia Venus: -7%

In the list so far, 2 have a thiophene ring, fused or not.
Values in the order: Vaccinia Venus	VACV mCherry inh
> Cc1ccccc1CNC(=O)C(=O)NCC1CCCN1S(=O)(=O)c1cccs1 (stereo not given)
 : -9%	-20%
> CCO[C@@H]1OC(C(=O)O)=C[C@H](c2csc3ccccc23)[C@H]1CCCO
 : -7%	i

(continued)
Values in the order: Vaccinia Venus	VACV mCherry inh
> CN(C)S(=O)(=O)N1CCN(c2cc(Cl)ccc2Cl)CC1
 : u	-24%
> CCC(N)C12CC3CC(CC(O)(C3)C1)C2 (stereo not given)
 : -3%	x
> Cc1ccccc1CN1C(=O)CSCC1(C)C(=O)Nc1c(C)cccc1C (stereo not given)
 : 15%	-20%
> COC(=O)c1ccccc1NC(=O)C(Cc1ccccc1)N1Cc2ccccc2C1=O (stereo not given)
 : -9%	i
> CCC(C)NC(=O)CNC(=O)Cn1c(C)cc2ccccc2c1=O (stereo not given)
 : -14%	i
> COc1ccc(/C=C/C(=O)NC(=S)NNC(=O)Cc2cccs2)cc1OC
 : -20%	-27%
> O=C(NCc1ccc(F)cc1)c1ccc2c(c1)nnn2C1CCCC1
 : -3%	-8%
> Cc1cccc(C)c1NC(=S)N(C)CCc1ccccn1
 : -10%	-10%
> O=C(Nc1nnc(-c2ccco2)o1)c1ccc(Br)s1
 : -17%	-7%
> CC[C@]12c3[nH]c4cc(-c5ccco5)ccc4c3CCN1C(=O)[C@@H](CC(=O)NCCc1ccccn1)C[C@@H]2C(=O)N1CCN(C(=O)c2ccco2)CC1
 : u	-27%
> COc1ccccc1N1CCN(S(=O)(=O)CCNC(=O)c2ccccc2Br)CC1
 : -14%	-26%
> CCC1CN2CCc3cc(OC)c(OC)cc3C2CC1CC1NCCc2c1[nH]c1ccc(O)cc21 (stereo not given)
 : 5.6µM*	u
> C/C(CC(=O)Nc1ccc2c(c1)OCCO2)=N\NC(=O)Cc1ccccc1
 : -2%	-27%
> C=C(C)Cc1c(C)c(C#N)c2[nH]c3ccccc3n2c1=O
 : -26%	-19%
> CCc1nc(SCC(=O)Nc2ccc([N+](=O)[O-])cc2)n[nH]1
 : -6%	-8%
> O=C(c1ccc(-c2ccccc2Cl)o1)N1CCN(S(=O)(=O)c2cccs2)CC1
 : -29%	-12%
> CCN(CC)C(=O)C1CCN(c2nnc(C)c3c(C)n(-c4ccc(Cl)cc4)nc23)CC1
 : -17%	-10%
> O=C(C1CCCN(S(=O)(=O)c2ccc(Br)s2)C1)N1CCCCCC1 (stereo not given)
 : -26%	x
> COc1ccc(-c2cc(NC=O)c3ncc(-c4cccc(C(=O)NCCN(C)C)c4)n3c2)c(OC)c1
 : -1%	i
> COc1ccc(OC)c2c(C)cc(N3CCCCCC3)nc12
 : -27%	u
> COC(=O)c1nn(-c2ccc(C)cc2)c2nnc(Cc3ccccc3)c(=O)n12
 : -9%	i
> CCCOc1ccc(C2/C(=C(\O)c3c(C)[nH]c(C(=O)OC)c3C)C(=O)C(=O)N2CCN(C)C)cc1 (stereo not given)
 : -21%	x
> Cc1ccc(-n2ncc(C(=O)N3CCN(c4ccc(Cl)cc4)CC3)c2C2CCN(C(=O)OC(C)(C)C)CC2)c(C)c1
 : u	-7%
> CN1CCN(C(=O)c2ccc3c(c2)NC(=O)C(N2CCOCC2)S3)CC1 (stereo not given)
 : -18%	x
> O=C(O)CNc1nc(-c2ccccc2)c2cc([N+](=O)[O-])ccc2n1
 : 4%	-7%
> Nc1[nH]nc2nc3ccccc3cc12
 : 11%	i
> O=S(=O)(c1cc(F)ccc1F)N1CCC2(CC1)OCCN2S(=O)(=O)c1ccccc1
 : -23%	-20%
> CC(C)(C)OC(=O)N1CCc2nc(N3CCN(c4ncccn4)CC3)ncc2C1
 : -5%	-11%
> Cc1ccc(OCC(=O)Nc2nc(-c3ccccn3)cs2)c(C)c1
 : -6%	-18%
> OCC[C@H]1C[C@H](O)[C@@H](O)[C@]2(CCCCO2)O1
 : -5%	i
> COc1ccc(CCNC(=O)c2cc3c(s2)-c2c(C)cccc2OC3)c(OC)c1
 : -18%	-16%
> CC1CCN(c2oc(-c3ccc(F)cc3)nc2C#N)CC1
 : 9%	35%[activator]
> Cc1cccc(N2CCN(C(=O)COc3cc4oc(=O)cc(C)c4cc3Cl)CC2)c1C
 : -7%	-19%
> O=C1CN(c2ccc(Cl)cc2)C2(CCCCC2)S1
 : -14%	0%
> COc1cc(OC)cc(C(=O)Nc2ccccc2C(=O)NC2CC2)c1
 : u	u
> Cc1cc(S(=O)(=O)NCC(C)C)ccc1OCC(=O)NCC1CCCO1 (stereo not given)
 : -9%	i
> Cc1cccc(C)c1NC(=O)C1C(c2ccc3c(c2)OCO3)=Nc2ccccc2N1C(=O)c1ccccc1 (stereo not given)
 : 4%	u
> Cc1ccccc1N1CC(C(=O)N2CCc3ccccc32)CC1=O (stereo not given)
 : 4%	-20%
> COc1ccccc1C(=O)Nc1ccnn1C1CCN(C(=O)c2ccoc2C)CC1
 : -18%	-9%
> NC(CC(=O)O)c1ccc(Br)cc1 (stereo not given)
 : -9%	i
> Cc1noc(C)c1CSc1nnc(-c2ccccc2F)n1CCc1ccccc1
 : 6%	x
> COc1cccc(NC(=O)CSc2nc3ccccc3nc2N2CCCC2)c1
 : 1%	i
> Cc1cccc(C)c1OCCNC(=O)C(=O)NCc1ccco1
 : u	-6%
> Cc1ccc(CNC(=O)CCC2CCCN(Cc3cccc4ncccc34)C2)o1 (stereo not given)
 : -12%	-16%
> CCOc1cc(NC(=S)NCCCN2CCOCC2)c(OCC)cc1NC(=O)C(C)C
 : -5%	-12%

Profiles as entered above. Order of screens: Vaccinia Venus	VACV mCherry inh
Record of Cc1ccccc1N1CC(C(=O)N2CCc3ccccc32)CC1=O (stereo not given) = 4%	-20%
Record of O=C1CN(c2ccc(Cl)cc2)C2(CCCCC2)S1 = -14%	0%
Record of CN1CCN(C(=O)c2ccc3c(c2)NC(=O)C(N2CCOCC2)S3)CC1 (stereo not given) = -18%	x

(next part)
Values in the order: Vaccinia Venus	VACV mCherry inh
> Cc1ccc(-n2nnnc2SCC(=O)Nc2sccc2C#N)cc1
 : -3%	-21%
> CSc1nc(C)nc(N/C=C(\C#N)S(=O)(=O)c2ccccc2Cl)n1
 : -10%	-13%
> CCN1C(=O)c2ccccc2S(=O)c2ccc(C(=O)NCCCN3CCCC3=O)cc21 (stereo not given)
 : 6%	-11%
> O=C(C[n+]1ccccc1)Nc1c(Cl)cc(Cl)cc1Cl
 : -2%	i
> CCOC(=O)C1=C[C@@H](C2CCCC2)N(S(=O)(=O)c2ccc([N+](=O)[O-])cc2)[C@H]1c1ccccc1
 : 0%	i
> Cc1cccc(NC(=O)Nc2nnc(N3CCCCC3C)s2)c1C (stereo not given)
 : -7%	0%
> Cc1ccc(-c2nn(-c3cccc(F)c3)cc2CN(Cc2nccn2C)C(C)C)o1
 : -15%	-17%
> CCCCOc1ccc(/C(O)=C2/C(=O)C(=O)N(Cc3cccnc3)C2c2ccncc2)c(C)c1 (stereo not given)
 : -9%	i
> CC1(C)CC(=O)C=C(NC2CCCC(O)C2)C1 (stereo not given)
 : -12%	i
> Cc1cc(C)c2c(n1)sc1c(-c3ccccc3)c(C#N)c(N)nc12
 : 1%	-6%
> OC(CSc1ccccc1)CN1CCN(c2cccc(Cl)c2)CC1 (stereo not given)
 : -25%	u
> NC(=O)c1nnn(-c2cccc(C(F)(F)F)c2)c1-c1ccccc1
 : -11%	i
> COc1ccc(OCC(=O)Nc2cc(OC)cc(OC)c2)cc1
 : -18%	i
> CCC1(c2ccc(Cl)cc2)NC(=O)N(Cc2ccc(C(=O)OC)cc2)C1=O (stereo not given)
 : -7%	i
> Cc1ccc(CNC(=O)Nc2cc(C(=O)NCc3cccc(F)c3)ccc2N2CCCC2)cc1
 : -12%	-19%
> Cc1ccc(NC(=O)c2cc(S(=O)(=O)NCCC3=CCCCC3)ccc2F)cc1F
 : u	u
> CCCn1c(CCNC(=O)c2cccs2)nc2ccccc21
 : -14%	i
> O=C(Cn1nnc2c(cnn2-c2ccccc2)c1=O)NCc1cccs1
 : u	-16%
> Cc1cc(C(=O)CSc2ncccn2)c(C)n1Cc1ccco1
 : -9%	-2%
> Cc1occc1-c1nnc(SCC(=O)Nc2nc(-c3ccccc3)cs2)o1
 : -20%	u
> O=C(CS(=O)CC(=O)N(c1cccc(F)c1)C(C(=O)NC1CCCCC1)c1ccco1)Nc1ccc(F)cc1 (stereo not given)
 : u	u
> COc1cc(C(=O)Nn2c(C)nc3ccccc3c2=O)cc(OC)c1OC
 : -3%	-8%
> CCCc1[nH]nc2c1C(c1ccc(O)c(OC)c1)C(C#N)=C(N)O2 (stereo not given)
 : -8%	-9%
> COc1ncnc2c1oc1nc(CC(C)C)c3c(c12)CCCC3
 : -12%	-13%
> O=C(COn1nnc2ccc(Cl)cc21)NC1CCS(=O)(=O)C1 (stereo not given)
 : -3%	-9%
> O=C(NCc1ccccn1)c1cccc(NS(=O)(=O)c2cccc(F)c2)c1
 : 6%	-5%
> O=C1OC(Nc2ccc(F)c([N+](=O)[O-])c2)c2ccccc21 (stereo not given)
 : -4%	i
> CCOC(=O)c1ccc(COc2nc3ccccc3nc2-c2ccccc2NC(C)=O)o1
 : -17%	i
> CCOc1ccc(S(=O)(=O)NCCC(=O)N2CC(C)CC(C)C2)cc1 (stereo not given)
 : -24%	-3%
> Cc1cccc(C2=N/C(=C\c3cccnc3)C(=O)O2)c1
 : -10%	-15%
> CCOc1cc(CN2CCN(CCc3ccccc3)C(CCO)C2)ccc1OC (stereo not given)
 : -5%	-17%
> CCOC(=O)C1CCCN(C(=O)Cc2ccc(OC)c(OC)c2)CC1 (stereo not given)
 : 3%	3%
> COCCNC(=O)C(c1ccccc1C)N(CCOC)C(=O)Cn1nnc2ccccc21 (stereo not given)
 : -5%	-7%
> O=C(CSc1n[nH]c(-c2ccncc2)n1)Nc1ccccc1C(F)(F)F
 : 14%	-1%
> COc1ccc(N2C(=O)C3CCCCC3C2=O)cc1NC(=O)c1ccccc1 (stereo not given)
 : -7%	i
> O=C(Nn1c(-c2ccc(F)cc2)nc2ccccc2c1=O)C1CCCCC1
 : -9%	u
> Cc1ccc(N=Nc2c(N)n[nH]c2N)cc1
 : u	u
> Cc1cc(C)n(CCNC(=O)[C@H]2O[C@@H](n3ccc(=O)[nH]c3=O)[C@H](O)[C@@H]2O)n1
 : 11%	29%
> CN(C)S(=O)(=O)N(CC(=O)NCc1ccccc1)c1ccccc1
 : -2%	-8%
> Cc1nc(-n2nc(C)c(Cc3ccccc3Cl)c2C)sc1C(=O)N1CCCCC1C (stereo not given)
 : -7%	-7%
